# Source: PubChem BioAssay
# LT uptake inh = qHTS Assay for Anthrax Lethal Toxin Internalization. AID 912, 2007. Potency, µM (doses to about 40 µM), without a hit: top-dose activity change, negative = inhibition, hits mostly inhibitors. Cells, anthrax lethal toxin internalization, FRET ratio (460/530). 70,000 compounds, 0.67% hits; active = well fitted falling ratio curve with the 530 nm signal flat; inconclusive = other ratio curves, or a change in one channel alone; inactive = flat curves in the ratio and both channels; the % refers to the ratio; note: % is set by controls: 0 for no effect and ±100 for the full control effect; nearly all actives have a fitted effect of over 50% in size; tested in ME-180 cells; beta-lactamase reporter
# SmPrx2 inh = Schistosoma Mansoni Peroxiredoxins (Prx2); S. mansoni Prx2 activity coupled to TGR/GSH (TGR is thioredoxin glutathione reductase), NADPH fluorescence loss, qHTS; some inactives read as strong as hits; Potency, µM; Schistosoma mansoni peroxiredoxin 2 (Prx2); 65,000 compounds, 0.07% hits; active means full or partial inhibition curve with a strong effect at the top dose; inconclusive means weaker partial or single-point curve; inactive means no accepted curve; note: series up to 57 µM; many of its hits are not listed in these tables
#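 qHTS, coupled TGR/Prx2 format; 15 min compound preincubation at RT; reaction started with H2O2 (2.5 mM aliquot); kinetic NADPH fluorescence decrease, ex 365/em 450 nm.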
# The depositor's hits bear a star; u = inconclusive; x = not tested or not shown; & = joins results of further samples; [ ] = dose if it differs, or a comment. Potency is the fitted concentration of half-maximal effect. Only part of the results is shown (hit frequency here may not be typical).
canonical_smiles,LT uptake inh,SmPrx2 inh
O=C(NCC(c1cccnc1)N1CCN(c2ccc(F)cc2)CC1)OCc1ccccc1 (stereo not given),6%,>57
COc1ccccc1-c1nnc(SCC(=O)Nc2ccccc2)o1,-13%,>57
O=C(NC1CCCC1)c1csc2c1CCCC2,10%,>57
CCC(=O)Nc1c2c(nn1-c1cccc(Cl)c1)CSC2,6%,>57
CCCC1Cc2nc(N3CCCCC3)c(C#N)cc2CO1 (stereo not given),-15%,>57
Cc1noc(C)c1C(=O)N1CCC2(CCN(Cc3ccncc3)CC2)CC1,10%,>57
CCOC(=O)c1cnn(-c2ncnc3sc4c(c23)CCC4)c1N,-5%,>57
COc1ccc(F)cc1S(=O)(=O)N1CCCN(S(=O)(=O)c2cc(F)ccc2OC)CC1,3%,>57
COC(=O)[C@@H](NC(=O)NCc1cccs1)C(C)C,u,>57
CN(C)CCNC(=O)COc1cccc(Cl)c1,-8%,>57
C[C@H]1CC[C@@H]2[C@@H](C)[C@H]3[C@H](C[C@H]4[C@@H]5CC=C6C[C@@H](O[C@]7(O[C@H]8O[C@@H](C)[C@@H](O)[C@@H](O)[C@@H]8O)C[C@@H](O[C@@H]8O[C@H](CO)[C@@H](O)[C@H](O)[C@@H]8O)[C@@H](O)[C@H](CO)O7)CC[C@]6(C)[C@H]5CC[C@@]34C)N2C1,8%[3.58 µM],>57
O=C(c1ccc2c(=O)n(C3CCCC3)c(=S)[nH]c2c1)N1CCN(C2CCCCC2)CC1,6%,>57
Cc1ccccc1-c1nc(CS(=O)(=O)CC(=O)N2CCc3ccccc3C2)c(C)o1,-19%,>57
CCS(=O)(=O)CCSc1nc2c(cc1C#N)CCCC2,0%,>57
COc1ccc(NC(=O)Nc2ccc(OCC(=O)N3CCOCC3)cc2)cc1OC,10%,x
CC1Oc2ccccc2N(Cc2ccccc2F)C1=O (stereo not given),u,>57
CCCn1c(C)nc2c(NCC3CCCN3CC)nc(C)nc21 (stereo not given),-7%,x
O=C(c1ccc(CNc2c(N3CCCC3)c(=O)c2=O)cc1)N1CCc2ccccc2C1,u,>57
O=C(NCC1CCCO1)c1ccc(Cl)c(F)c1F (stereo not given),-3%,>57
CCCOc1ccccc1C(=O)N(Cc1cccs1)C1CCS(=O)(=O)C1 (stereo not given),-10%,>57
COC(=O)CC1=Nc2ccccc2NC(=O)C1,1%,>57
CC1Cn2c(nnc2-c2ccccc2O)S1 (stereo not given),-2%,>57
Cc1noc(C)c1-c1ccc2ncnc(NCCN3CCOCC3)c2c1,9%,>57
Cc1cc(=S)cc(C)n1CCCn1ccnc1,-6%,>57
COc1ccc(S(=O)(=O)NCCC(C)C)cc1OC,x,>57
CC1=C(C(=O)Nc2ccccc2C)C(c2ccccc2)NC(=O)N1 (stereo not given),10%,x
O=c1c(-c2ccc(Cl)cc2)nc2cncnc2n1Cc1ccc(F)cc1,-4%,>57
CC[N+](C)(CC)CCN1C(=O)c2ccccc2S1(=O)=O,u,>57
Cc1[nH]n2c(=O)c(C#N)c(-c3ccccc3)nc2c1-c1ccccc1,-7%,>57
Cc1ccc(CNC(=O)[C@@H]2C[C@H]2[C@@H](NP(=O)(c2ccccc2)c2ccccc2)c2ccccc2)o1,-15%,>57

# Continuation:
canonical_smiles,LT uptake inh,SmPrx2 inh
O=C(NCc1ccco1)c1cc2cc3ccc(Cl)cc3nc2o1,11%,>57
CC12CCC(=O)N1C(C(=O)O)Cc1c2[nH]c2ccccc12 (stereo not given),1%,>57
COc1ccc(CN(C(=O)CSc2nnc(-c3ccc(F)cc3)o2)c2ccc(F)cc2)cc1,u,>57
O=C(Nc1ccc(-c2nc3ncccc3o2)cc1)c1ccc(Br)o1,-12%,>57
O=S(=O)(CCc1ccccc1)N1CCOCC1,0%,x
COn1c(SCC(N)=O)nc2ccccc2c1=O,u,>57
Cc1cccc(NC(=O)c2sc(NC(=O)c3ccco3)c(C#N)c2C)c1C,-18%,>57
CC1(C)OC(=O)N(c2ccccn2)C1(C)O (stereo not given),u,>57
O=C(CCn1c(=O)[nH]c2ccccc2c1=O)N1CCN(c2cccc(C(F)(F)F)c2)CC1,2%,>57
CN(Cc1c(F)cccc1Cl)c1ccc(S(=O)(=O)N2CCOCC2)cn1,-19%,>57
c1ccc(-c2ccc(N3CC[C@@]4(CCCNC4)C3)cc2)cc1,u,>57
O=C1CCCN1CCC1CCN(C2CC(=O)N(Cc3ccc(N4CCCC4=O)cc3)C2=O)CC1 (stereo not given),-3%,>57
CCOC(=O)Cn1c(=O)oc2cc(S(=O)(=O)Nc3cc(Cl)ccc3OC)ccc21,u,>57
CSCSC1=C(C#N)C(c2ccc(Cl)cc2)C(C(C)=O)=C(C)N1 (stereo not given),u,>57
CS(=O)(=O)Nc1cccc(-c2nc(NCc3cccnc3)c3ccccc3n2)c1,-2%,>57
COc1ccc(OC)c(NC(=O)COC(=O)c2ccc(S(=O)(=O)N3CCOCC3)cc2)c1,-4%,>57
COC(=O)c1sc2nc3c(cc2c1N)C(=O)CC(C)(C)C3,2%,>57
S=c1[nH]nc(-c2ccncc2)n1Cc1ccco1,x,>57
CCn1c(SCc2ccccc2)nnc1-c1ccc(S(=O)(=O)N2CCCCC2)cc1,-12%,>57
COc1ccc(CCNS(=O)(=O)c2ccc(S(=O)(=O)N3CCCC3)cc2)cc1OC,-5%,>57
O=C(Cn1cccc1C(=O)c1ccccc1)NCCN1CCCCCC1,-4%,>57
CCOC(=O)c1c(N)nn(C(C)=O)c1-c1ccccc1,-1%,>57
Cc1cc(=O)oc2c(CN(C)Cc3ccccc3)c(O)ccc12,u,x
O=C(O)CC(C(=O)NCc1ccccc1)C1CCCO1 (stereo not given),0%,>57
COc1ccccc1-c1ccc2ncnc(N3CCNCC3)c2c1,u,>57
NCCC[C@@H](CC(=O)N[C@@H]1CCNC[C@H]1C(=O)N[C@H](CC(=O)N[C@@H](CCC(=O)O)CC(=O)O)Cc1c[nH]c2ccccc12)NC(=O)C[C@H](Cc1c[nH]c2ccccc12)NC(=O)[C@@H]1CCCC[C@H]1N,-4%,>57
O=Cc1ccsc1B(O)O,0%,x
COc1ccc(O[C@H]2C=C[C@@H](c3ccccc3)O[C@H]2CO/N=C\C[C@@H]2C=C[C@H](OC(C)=O)[C@H](COC(C)=O)O2)cc1,-7%[0.32 µM],x
OCCNc1ncnc2c1ncn2Cc1ccccc1,-11%,>57
Cc1cc(C)c(NC(=O)CCCN2CCN(C)CC2)c(C)c1,u,>57

# In a second layout: results already given
O=C(NCc1ccco1)c1cc2cc3ccc(Cl)cc3nc2o1
  LT uptake inh: 11%; SmPrx2 inh: >57
CC12CCC(=O)N1C(C(=O)O)Cc1c2[nH]c2ccccc12 (stereo not given)
  LT uptake inh: 1%; SmPrx2 inh: >57
COc1ccc(CN(C(=O)CSc2nnc(-c3ccc(F)cc3)o2)c2ccc(F)cc2)cc1
  LT uptake inh: u; SmPrx2 inh: >57
O=C(Nc1ccc(-c2nc3ncccc3o2)cc1)c1ccc(Br)o1
  LT uptake inh: -12%; SmPrx2 inh: >57

# One compound at a time (already shown). Order of values: LT uptake inh | SmPrx2 inh
# Cc1cc(=O)oc2c(CN(C)Cc3ccccc3)c(O)ccc12 in the list: u | x
# CC12CCC(=O)N1C(C(=O)O)Cc1c2[nH]c2ccccc12 (stereo not given) in the list: 1% | >57

# Later entries:
# Fields: LT uptake inh, SmPrx2 inh
- CCCNC(=O)OC[C@@H]1O[C@H](CCO/N=C\c2ccc(C(=O)N3[C@H](c4ccc(C)cc4)[C@@H](C)CC[C@H]3C(=O)OC)cc2)C=C[C@@H]1Oc1ccc(OC)cc1
 : 4%[8 µM], x
- CCCCN1C(=O)CC(Nc2ccc(CC)cc2)C1=O (stereo not given)
 : -11%, >57
- CCO[P@]1(=O)OC[C@@H]2O[C@H](n3cnc4c(N)ncnc43)[C@H](O)[C@@H]2O1
 : -1%[8 µM], >57
- COc1ccc(-n2nnnc2SCC(=O)Nc2cccc(NC(C)=O)c2)cc1OC
 : -13%, >57
- COCCn1c(=O)c(-c2cccs2)nc2cnc(OCc3ccccc3)nc21
 : 3%, >57
- Cc1sc2nc(SCC(=O)c3cccs3)n(Cc3ccco3)c(=O)c2c1C
 : 0%, >57
- CCCCC(=O)OCC(=O)Nc1ccc(OC(F)F)cc1
 : -10%, >57
- COc1ccc(C(C)(C)C)cc1S(=O)(=O)N1CCN(C)CC1
 : 23%, >57
- CC(C)=CCC/C(C)=C/CO/N=C1/C[C@@H](O)[C@@H](O)[C@@H]2[C@@H]3C(=O)N(Cc4ccc5c(c4)OCO5)C(=O)[C@H]3CC[C@H]12
 : -3%[8 µM], x
- O=C(O)C1CC(=O)N(Cc2ccc(F)cc2)C1 (stereo not given)
 : 6%, >57
- CCN(Cc1cc2ccccc2[nH]c1=O)C(=O)C(C)C
 : -15%, >57
- CCOC(=O)c1cc(C(O)(C(F)(F)F)C(F)(F)F)c(/N=C/N(C)C)o1
 : -3%, >57
- Cc1[nH]c2ccccc2c1C(=O)CN1CCCCC1CCO (stereo not given)
 : x, >57
- Cn1c(=O)c2c(nc(CN3CCN(c4ccccc4F)CC3)n2CCN2CCOCC2)n(C)c1=O
 : 24%, >57
- O=C(COC(=O)CCS(=O)(=O)c1ccc(Cl)cc1)Nc1ncc(Cl)cc1Cl
 : u, >57
- CCOC(=O)C1CCN(CC(=O)Nc2c(C(=O)OC)[nH]c3cccc(Cl)c23)CC1
 : 25%, >57
- Cc1c(N=C2SCC(=O)N2c2c(C)n(C)n(-c3ccccc3)c2=O)c(=O)n(-c2ccccc2)n1C
 : 15%, >57
- CSc1ccc(Cl)c(C(=O)OCC(=O)N2CCOCC2)c1
 : -19%, >57
- CCN(CC)CCCN1C(=O)C(=O)/C(=C(/O)c2cc(C)ccc2C)C1c1cccnc1 (stereo not given)
 : -5%, >57
- Cc1cccc(-c2noc(-c3ccccc3C(=O)NCC3CCCO3)n2)c1 (stereo not given)
 : 7%, >57
- CC(=O)N1C=CN(C(C)=O)C(c2cn(C)c3ccccc23)C1c1cn(C)c2ccccc12 (stereo not given)
 : u, >57
- COCCN(CC(=O)NCc1ccc(F)cc1)C(=O)CCC(=O)Nc1ccccn1
 : u, >57
- Nc1nc2ccc(Cl)cc2c2nc(-c3ccco3)nn12
 : u, >57&>57
- O=C1NC(c2ccncc2)Nc2ccccc21 (stereo not given)
 : -3%, >57
- C[C@@H]1Oc2ccc(C(=O)C[C@@H](C(=O)O)c3ccc4c(c3)OCO4)cc2O1
 : 1%[8 µM], >57
- CCn1c(SCC(=O)OC2CCCCC2)nnc1-c1ccncc1
 : 8%, >57
- Cn1c(Cn2c(=O)sc3ccccc32)nnc1SCC(=O)N1CCCc2ccccc21
 : -9%, >57
- CCCCC(=O)NCCc1cc2c(C)ccc(C)c2[nH]c1=O
 : 4%, >57
- CN1C2CCC1CC(OC(=O)CCN1CCCC1)C2 (stereo not given)
 : x, >57
- COc1ccc(-c2cn3c(C)c(C(=O)Nc4cc(NC(C)=O)ccc4OC)sc3n2)cc1
 : -18%, >57

# As entered above:
# Under SmPrx2 inh, `Cc1[nH]c2ccccc2c1C(=O)CN1CCCCC1CCO` (stereo not given) has >57
# Under SmPrx2 inh, `Cc1c(N=C2SCC(=O)N2c2c(C)n(C)n(-c3ccccc3)c2=O)c(=O)n(-c2ccccc2)n1C` has >57
# Under SmPrx2 inh, `Cc1cccc(-c2noc(-c3ccccc3C(=O)NCC3CCCO3)n2)c1` (stereo not given) has >57
# Under LT uptake inh, `O=C1NC(c2ccncc2)Nc2ccccc21` (stereo not given) has -3%

# Additional entries:
# Fields: LT uptake inh, SmPrx2 inh
- COCCNC(=O)CN1C(=O)CC(C)(C)S(=O)(=O)c2ccccc21
 : 5%, >57
- O=C(Cc1c(O)c2ccccc2[nH]c1=O)NC1CCCCCCC1
 : u, >57
- Cc1ccc(S(=O)(=O)NCCN=C(CN2CCCC2)NS(=O)(=O)c2ccc(C)cc2)cc1
 : 18%, >57
- COc1ccc(NC(=O)c2cc(-c3cc(C)cc(C)c3O)n[nH]2)cc1Cl
 : u, >57
- NCCCCNCCCN
 : 4%&-6%, >57&>26
- COc1ccc2c(c1OC)C(=O)N(c1ccccn1)C2
 : -25%, >57
- COc1cc(C2N(c3ccccn3)C(=O)C3CCCN32)cc(OC)c1OC (stereo not given)
 : -1%, >57
- COCC(=O)O[C@]1(CCN(C)CCCc2nc3ccccc3[nH]2)CCc2cc(F)ccc2[C@@H]1C(C)C
 : -3%, >57
- O=C(CSc1nnc(-c2ccccc2)o1)c1nnc(-c2ccccc2)o1
 : -14%, >57
- C=CCNc1nc(C2(C)CC3(CC(C)OC3=O)C(=O)O2)cs1 (stereo not given)
 : u, >57
- Cc1sc2nc(C3CC3)nc(NCCNS(C)(=O)=O)c2c1C
 : -5%, >57
- NC(=O)CS(=O)(=O)c1nc2ccccc2n1Cc1ccccc1F
 : -9%, >57
- O=C(CN(C1CCCCC1)S(=O)(=O)c1ccc(F)cc1)NC1CC1
 : -24%, >57
- COC(=O)c1cccc(NC(=O)CN2CCN(Cc3ccccc3)CC2)c1
 : -3%, >57
- Cc1ccc(NC(=O)N(Cc2ccco2)C(C)c2ccco2)cc1C (stereo not given)
 : u, >57
- O=C(O)COc1ccc2c(c1)CCCC2
 : -4%, x
- CCOC(=O)c1cnn(CCOC(=O)C2CC2)c1NC(=O)C1CC1
 : 0%, >57
- O=C(Nc1nc2ccccc2n1CCN1CCCC1)C1CCCCC1
 : u, >57
